From PubChem
Cruzain inh Det: qHTS Assay for Promiscuous and Specific Inhibitors of Cruzain (with detergent) | Potency, µM, for the others: max response, negative = inhibition, most hits filed as inhibitors | purified cruzain, Z-FR-AMC fluorescence, 0.01% Triton | AID 1478, 2009 | actives 0.43% (n = 200,000); active means well fitted curve in the direction sought with a large enough effect; inconclusive means small, poorly fitted or top-dose-only effect, or another doubt; inactive means no such curve, though single readings can be large; an effect the other way counts as inactive or inconclusive;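 further: plate controls were neutral wells for no effect and buffer without enzyme for full effect; nearly all actives have a fitted effect of over 40% in size; top concentration of the series not given in the record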
Target sequence (P25779 123-467 limits assumed): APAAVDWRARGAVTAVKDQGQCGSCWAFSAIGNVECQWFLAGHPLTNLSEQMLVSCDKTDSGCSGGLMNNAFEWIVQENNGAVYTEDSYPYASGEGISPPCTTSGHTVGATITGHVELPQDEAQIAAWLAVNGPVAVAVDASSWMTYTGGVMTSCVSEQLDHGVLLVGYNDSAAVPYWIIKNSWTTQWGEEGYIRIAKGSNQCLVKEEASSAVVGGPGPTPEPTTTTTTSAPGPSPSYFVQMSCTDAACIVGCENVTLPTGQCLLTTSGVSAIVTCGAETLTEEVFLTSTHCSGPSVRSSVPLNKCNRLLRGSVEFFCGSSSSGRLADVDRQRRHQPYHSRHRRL
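In this qHTS format, compounds are incubated with 1.5 nM cruzain for 15 min at room temperature before 2 uM Z-FR-AMC is added. Release of AMC is followed at 360/450 nm, and progress is taken as the 60 s fluorescence difference.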
Marburg entry inh: qHTS for inhibitors of binding or entry into cells for Marburg Virus. Potency, µM (doses to about 37.8 µM), for the others: at the top dose activity change, negative = inhibition, actives largely listed as inhibitors. actives 1.8% (n = 300,000). Marburg virus pseudotyped entry inhibition, cell reporter; control for the full effect not named in the record; about a third of the inactives were read at about 46 µM. AID 540276, 2011; active = well fitted inhibition curve with a large enough effect; inconclusive = small, poorly fitted or top-dose-only effect, or effect the other way; inactive = flat fitted curve, though single readings scatter; tested in HEK293 cells; about a fifth of its hits are not listed in these tables; further: on the % scale 0 is the no-effect control and ±100 the full control effect; luciferase read-out
Lassa entry inh: qHTS for Inhibitors of binding or entry into cells for Lassa Virus; Potency, µM (top dose mostly 37.9 µM), without a hit: top-dose activity change, negative = inhibition, usual class: inhibitors; Lassa virus pseudotype entry inhibition, cell reporter; control for the full effect not named in the record; actives 1.2% (n = 300,000); AID 540256, 2011; active means well fitted inhibition curve with a large enough effect; inconclusive means small, poorly fitted or top-dose-only effect, or effect the other way; inactive means flat fitted curve, though single readings scatter; tested in HEK293 cells; further: on the % scale 0 is the no-effect control and ±100 the full control effect; nearly all actives have a fitted effect of over 50% in size; luciferase read-out
StopGo reporter: High Throughput Screening for Foot and Mouth Disease Virus Antivirals | Potency, µM (highest dose often 57.9 µM), for inactives: at the top dose signal change, negative = less light | actives 1.2% (n = 410,000) | human cells with a luciferase reporter of 2A StopGo recoding; control for the full effect not named in the record; active = well fitted falling curve with a large enough effect; inconclusive = small, poorly fitted or top-dose-only effect; inactive = no such curve, though single readings can be large or run the other way; tested in HEK293T cells; further: on the % scale 0 is the no-effect control and ±100 the full control effect; nearly all actives have a fitted effect of over 45% in size; luciferase light after 4 h
SARS PLpro yeast: qHTS of Yeast-based Assay for SARS-CoV PLP | S. cerevisiae expressing SARS-CoV PLpro, growth rescue; control for the full effect not named in the record | Potency, µM (highest dose often 32.9 µM), without a hit: top-dose activity, positive = growth rescue | actives 0.19% (n = 330,000) | AID 485353, 2010; further: 0% is about no effect; nearly all actives have a fitted effect of over 55% in size; growth read by luminescence after 48 h
Cruzain inh noDet: qHTS Assay for Promiscuous and Specific Inhibitors of Cruzain (without detergent); Potency, µM, without a hit: max response, negative = inhibition, hits mostly inhibitors; actives 2.3% (n = 200,000); purified cruzain, Z-FR-AMC fluorescence, no detergent; active means well fitted curve in the direction sought with a large enough effect; inconclusive means small, poorly fitted or top-dose-only effect, or another doubt; inactive means no such curve, though single readings can be large; an effect the other way counts as inactive or inconclusive;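 further: plate controls were enzyme without inhibitor for no effect and buffer without enzyme for full effect; nearly all actives have a fitted effect of over 40% in size; top concentration of the series not given in the record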
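Purified cruzain at 1.5 nM, pre-incubated 15 min with compound at room temperature in 100 mM sodium acetate pH 5.5, 5 mM DTT, 0.00005% Triton X-100. Reaction started with 2 uM Z-FR-AMC; AMC fluorescence increase over 60 s gives rate.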
RE007 growth inh: qHTS Assay for Inhibitors of the HIV-1 protein Vpr. S. pombe RE007 Vpr strain, BacTiter-Glo ATP luminescence, 24 h; control for the full effect not named in the record. Potency, µM (titrated, usually from 92.2 µM), inactives show at the top dose activity change, negative = less growth. actives 0.21% (n = 360,000); active = well fitted falling curve with a large enough effect; inconclusive = small, poorly fitted or top-dose-only effect; inactive = no such curve, though single readings can be large or run the other way;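 further: on the % scale 0 is the no-effect control and ±100 the full control effect; nearly all actives have a fitted effect of over 50% in size; the assay follows cell death caused by Vpr and the record does not say whether a fall means rescue or toxicity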
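Fission yeast strain RE007, carrying one chromosomally integrated HIV-1 vpr copy, was seeded at OD 0.01 in PMG+AL medium with 23 nL pinned compound. After 24 h at 30 °C and 99% humidity, viability was read by BacTiter-Glo luminescence.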
NS1 inh: qHTS Assay for Inhibitors of Influenza NS1 Protein Function. S. cerevisiae slowed by influenza A NS1, growth recovery by OD600. Potency, µM (top dose mostly 46.1 µM), inactives show at the top dose activity, positive = more growth. actives 0.4% (n = 270,000). AID 2326, 2010; further: actives are rising curves; nearly all actives have a fitted effect of over 50% in size
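In this qHTS, NS1 from influenza A is expressed in budding yeast, where it slows growth. Cells are switched from glucose to 2% galactose medium (pH 6.0, -URA), treated with compound, and growth recovery is read at OD600.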
* hit, by the source's call; ? = inconclusive; . = no result given; & = joins results of further samples; [ ] = dose if it differs, or a comment. Unless noted, the call rests on the fitted dose curve; in most records, active means well fitted rising curve with a large enough effect; inconclusive means small, poorly fitted or top-dose-only effect; inactive means no such curve, though single readings can be large or run the other way. Potency means the concentration at half of the fitted maximal effect.

SMILES	Cruzain inh Det	Marburg entry inh	Lassa entry inh	StopGo reporter	SARS PLpro yeast	Cruzain inh noDet	RE007 growth inh	NS1 inh
CCOc1ccc(C(=O)/C=C/c2ccc(OC)c(OC)c2)cc1	.	?	?	?	-2%	.	?	-6%
COc1ccccc1N1CCN(C(=O)c2cc3c(s2)CCCCC3)CC1	.	1%	-11%	-17%	-2%	.	23%	-48%
Nc1ncnc(N2CCc3ccccc32)c1[N+](=O)[O-]	.	21%	17%	-16%	-1%	.	14%	-4%
CCOc1ccc(NC(=O)CCc2c(C)nc3cc(-c4ccc(Cl)cc4)nn3c2C)cc1	0.9%	-24%[46.1 µM]	?	?	.	-8%	.	.
N#Cc1c(Sc2ncc(C(F)(F)F)cc2Cl)nsc1C/C=N\OCc1ccccc1Br	-15%	-11%	-21%	0%	0%	7.9µM*	-19%	21%
CC(SC1=NCCS1)C(=O)Nc1nnc(-c2ccc(Br)cc2)s1 (stereo unspecified)	-6.2%	.	.	-19%	-1%	?	-21%	-6%
Cn1ncc([N+](=O)[O-])c1C(=O)N/N=C/c1cccc([N+](=O)[O-])c1	.	21%[46.1 µM]	0%	-1%	0%	.	1%	5%
O=[N+]([O-])c1cccc(N=Nc2ccc(O)cc2O)c1	.	2.8µM*	?	-9%	.	.	-28%	.
O=C(Cc1c(Sc2ccccc2)c2ccccc2n1Cc1ccccc1)NCCO	-4.6%	?	?	-21%	-3%	?	20%	17%
CCCCOc1ccc(N2C(N)=NC(N)=NC23CCCCC3)cc1	.	.	.	1%	1%	.	27%	-19%
CCOC(=O)Cn1cnc2onc(-c3ccc(F)cc3)c2c1=O	-4.5%	-2%[46.1 µM]	4%[46.1 µM]	-4%	.	-4%	.	.
Cn1c(N)c(C(=O)COC(=O)c2ccccc2C(=O)c2ccc(Cl)c([N+](=O)[O-])c2)c(=O)n(C)c1=O	.	11µM*	?	?	1%	.	2%	.
Nc1ccccc1-c1nc2ccccc2s1	.	?	10%	26%	-2%	.	-17%	-6%
Cc1ccc(C(c2nnnn2Cc2ccccc2)N2CC=C(c3ccc(F)cc3)CC2)cc1 (stereo unspecified)	3.3%	-26%	?	.	-7%	-29%	10%	-9%
CSc1cccc(CNC(=O)CC2C(=O)NCCN2CC(C)(C)C)c1 (stereo unspecified)	.	?	2%[46.1 µM]	11%	-1%	.	4%	3%
CCOc1ccc(N(CC(=O)Nc2ccccc2C)S(=O)(=O)c2c(C)[nH]c(=O)[nH]c2=O)cc1	.	.	.	-3%	0%	.	15%	-7%
Cc1ccc(S(=O)(=O)N(C)C)cc1NC(=S)N1CCc2ccccc21	.	?	?	-10%	2%	.	-10%	1%
Nc1cc([N+](=O)[O-])ccc1Nc1ccc(O)cc1	.	.	.	-15%	0%	.	19%	-49%
COC(=O)[C@H]1C[C@@H]1[C@H](NS(=O)(=O)c1ccc2ccccc2c1)c1ccccc1	-3.8%&-3.7%	-22%	?	13%	-1%	-2%&-18%	-10%	-26%
CCN(CC)CCNC(=O)c1ccc(NC(=O)c2cccc(S(=O)(=O)N3CCc4ccccc43)c2)cc1	.	8.9µM*	-4%	-9%	2%	.	-16%	.
CC(=O)c1ccc(N2CCN(S(=O)(=O)c3cccc(S(=O)(=O)N4CCOCC4)c3)CC2)cc1	4.2%	0%&15%	6%	-15%	8%	?	7%	-3%
CCOC(=O)c1c(NC(=O)/C=C/c2ccc(OCC)cc2)sc2c1CCCC2	-1.5%	-7%[46.1 µM]	-12%[46.1 µM]	-10%	.	-14%	.	.
COC(=O)C(CSCc1ccccc1)NC(=O)CSc1nc(C)cc(=O)[nH]1 (stereo unspecified)	.	?	-3%	0%	-2%	.	2%	.
CC(=O)NCCc1ccc(-c2csc(NC(=O)C3CC(=O)N(C4CCCC4)C3)n2)cc1 (stereo unspecified)	.	13%	-8%	-18%	4%	.	-2%	.
Cc1nnsc1C(=O)Nc1ccc(S(=O)(=O)N2CCCC(C)C2)cc1 (stereo unspecified)	.	.	.	-6%	7%	.	-16%	-5%
COc1ccc(OC)c(S(=O)(=O)N2CCN(c3ncccn3)CC2)c1	.	.	.	0%	1%	.	1%	-7%
N/C(=N\OC(=O)/C=C/c1ccccc1)c1ccccc1	4.6%	-5%	?	.	-30%	-11%	-10%	-184%
Cc1ccc(Nc2nc(N)c(C#N)c(CC#N)c2C#N)cc1	.	-6%[46.1 µM]	17%[46.1 µM]	-20%	1%	.	13%	12%
COc1ccc(N2CCN(C(=O)CCCCn3c(=O)[nH]c4ccsc4c3=O)CC2)cc1	-0.3%	-17%&4%[46.1 µM]	-5%&7%[46.1 µM]	-5%&-12%	1%	1%	6%	.
Cc1cccc(N2CCN(c3nc4ccccc4n4cnnc34)CC2)c1C	-12%	.	.	-10%	3%	-1%	0%	-40%
O=C(O)c1cccc(NC(=S)NC(=O)c2ccc(-c3ccccc3)cc2)c1	.	?	-19%[46.1 µM]	12%	-1%	.	67%	8%
CN(C)CCCNC(=S)NCC(c1ccc(Cl)cc1Cl)c1c[nH]c2ccccc12 (stereo unspecified)	.	?	10µM*	-23%	-3%	.	26%	17%
CC(=O)CSc1nnc2cc(C)c3ccccc3n12	.	-9%[46.1 µM]	1%	3%	-1%	.	-7%	.
O=C(Nc1nnc(C2CC2)s1)c1cccs1	.	.	.	40%[activator]	0%	.	-11%	-38%
CC(/C=C/c1ccccc1)=N\Nc1nc(C)cc(C)n1	-6.1%	0%	23%	35%[activator]	?	5%	-15%	-11%
Cc1ccccc1-n1c(SCC(=O)N2CCCC2)nnc1-c1ccccn1	3.2%	13%	15%	3%	17%	-2%	18%	-4%
CCOC(=O)Cc1csc(SC(C)C(=O)NCC(=O)Nc2ccc(F)c(F)c2F)n1 (stereo unspecified)	.	20%	11%	40%[activator]	0%	.	12%	0%
CCn1cc2nc(SCC(=O)Nc3ccccc3F)n(Cc3ccc(C)cc3)c(=O)c2n1	-3.7%	.	-25%[46.1 µM]	-18%	.	10%	.	.
COc1ccc(-c2ccc(C(=O)C3CC3)cc2)cc1	.	?	?	5%	1%	.	2%	-4%
CN(C)C(=O)N1CCCC(C(=O)NCc2cccs2)C1 (stereo unspecified)	2.1%	-7%	11%	.	3%	-5%	3%	7%
Cc1cc(Br)ccc1NC(=O)CN(C)C(=O)c1cc(S(=O)(=O)N(C)C)ccc1N1CCCC1	.	13%	-9%	-9%	1%	.	32%	8%
CCOc1ccc(C(=O)Nc2ccc(-c3nc4cc(C)ccc4o3)cc2)cc1	2.9%	.	1%[46.1 µM]	21%	.	-1%	.	.
COc1cc(-c2ccno2)ccc1S(=O)(=O)N1CCN(c2ccc(F)cc2)CC1	-2.9%	.	10%[46.1 µM]	-23%	.	-4%	.	.
N#CC(c1cccc(Cl)c1)c1ccc2c(C(F)(F)F)cc(C(F)(F)F)nc2n1 (stereo unspecified)	-7.2%	?	2.2µM*	5µM*	.	0%	?	-167%
COc1ccc(CC(NC(C)=O)C(=O)NC2CCN(C(=O)c3cnccn3)CC2)cc1 (stereo unspecified)	-1.0%	3%	13%	6%	-3%	6%	2%	-11%
CC(C)OC(=O)CCCCCN1C(=O)CSC1=S	-4.9%	-5%	3%	-23%	-4%	-14%	-13%	-1%
O=C(NCCCc1ccccc1)c1cnc2n(c1=O)CCS2	2.8%	?	?	2%	3%	-4%	1%	-15%
Cc1cnc(N)c2c(=O)oc3ccccc3c12	-8.0%	-3%	.	2%	2%	-22%	9%	-12%
COc1cc(NC(=O)c2ccc(C)cc2)ccc1NC(=O)c1cc2ccccc2o1	0.4%	-25%	-3%	-9%&-9%	2%	8%	-2%	-3%
O=C(Cn1c(=O)n(Cc2ccco2)c(=O)c2c3c(sc21)CCCCC3)Nc1ccccc1	28µM*	-1%	-21%	-2%	0%	?	2%	?
O=C(NCc1ccc(Cl)cc1)c1cccnc1	4.8%	7%	3%	1%	-5%	-3%	5%	-4%
O=C1CC(=O)Nc2cc(S(=O)(=O)N3CCOc4ccc(Cl)cc43)ccc2N1	-5.5%	.	?	0%&-9%	-2%	-4%	4%	-3%
CN(CC(=O)Nc1c(Cl)cccc1Cl)C(=O)c1cccc(-n2cccc2)c1	.	6%[46.1 µM]	5%	4%	5%	.	-8%	.
CC(C)Cn1c(N)c(C(=O)CSc2nc3ncc(Cl)cc3[nH]2)c(=O)n(C)c1=O	.	?	?	16µM*	0%	.	-17%	.
N#CC12COC3(CCCCC3C1(C#N)C#N)OC2=N (stereo unspecified)	.	?	1%	28µM*	0%	.	-4%	5%
Nc1nnc(Cc2c[nH]c3ccccc23)s1	-20%	15%	24%	21%	3%	-18%	-8%	7%
Cc1ccnc(NC(=O)c2ccc(S(=O)(=O)N3CCCC3)cc2)c1	.	?	24%	23%	-2%	.	6%	.
COc1ccc(C2=NN(c3ccc(C(=O)O)cc3)C(c3ccc(OC)c(OC)c3)C2)cc1 (stereo unspecified)	.	4%[46.1 µM]	7%[46.1 µM]	-29%	-11%	.	-21%	19%
CCC(=O)Nc1cc(-c2nn(C)c(=O)c3ccccc23)ccc1OC	-6.7%	?	18%	-16%	1%	-5%	0%	-8%
Cc1ccc(C)c(NC(=O)CCN2C(=O)[C@@H]3Cc4ccccc4CN3C2=O)c1	.	-21%[46.1 µM]	10%[46.1 µM]	-23%	-2%	.	3%	-2%
O=C1CC(N2CCN(CCc3ccccn3)CC2)C(=O)N1c1ccc(Cl)cc1 (stereo unspecified)	4.2%	0%[46.1 µM]	2%	11%	-7%	-7%	?	-3%
